MT1-MMP act inh: blockers of MT1-MMP proenzyme processing, primary screen, HT1080 RFP-PRO-GFP cells, GFP/RFP fluorescence. 0.061% of 360,000 active. GFP/RFP ratio fluorescence, overnight; percent of plate control window, DMSO zero. GFP/RFP ratio change, % at 20 µM. AID 651647, 2012;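 active means GFP/RFP ratio change of at least 30% with cell ATP level not reduced by more than half and red fluorescence within 50% of control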; further: strong numbers were not always called active
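Test system: HT1080 RFP-PRO-GFP cells; Benchmarks: DMSO and RFP-L50D-GFP cell wells; Timing: cells overnight before dosing, compound overnight, 37 °C, 5% CO2; Compound: one 20 µM compound dose with 1% DMSO; Read-out: GFP/RFP fluorescence ratio.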
CSC inhib: cancer stem cell viability inhibitors, primary screen, luminescence. cancer stem cell-like cells viability. inhibition, % at 7.5 µM. 1.1% of 300,000 active. AID 2717, 2010;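 active means mean at 75% or more and at least half the replicates too; inconclusive means mean and replicates disagree; tested in HMLE shEcad cells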;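 further: 0% = median of negative and 100% = median of positive control wells; the first replicate is given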
Yeast UUG start: modulators of yeast start codon fidelity, primary screen, whole organism, S. cerevisiae, single point, plate reader; S. cerevisiae UUG-firefly luciferase reporter, luminescence/redox ratio; activity score, % at 18.7 µM; 0.13% of 350,000 active;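 active means replicate mean at a twofold rise or more, about +100% in these data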;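 further: firefly luciferase made from a UUG start codon reports start codon fidelity; reporter light over untreated wells divided by growth signal over untreated wells; some hits fall short of that in this replicate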
Rce1 inh: yeast Rce1p protease inhibitors, primary screen, biochemical, fluorescence, cell-free homogeneous | CAAX prenyl protease 2 (Saccharomyces cerevisiae (strain ATCC 204508 / S288c)), Q03530 | yeast membranes, quenched prenylated peptide cleavage fluorescence | calls only | 0.27% of 290,000 active;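 active means fall in fluorescence gain of 50% or more versus controls, with final raw signal at or below 3038400; inconclusive means same 50% fall but final raw signal above 3038400; inactive means fall in fluorescence gain under 50%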;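 further: plate controls were neutral control wells for no effect and wells lacking membranes for full effect; tested at 10 µM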
Target sequence (Q03530 whole entry, looked up): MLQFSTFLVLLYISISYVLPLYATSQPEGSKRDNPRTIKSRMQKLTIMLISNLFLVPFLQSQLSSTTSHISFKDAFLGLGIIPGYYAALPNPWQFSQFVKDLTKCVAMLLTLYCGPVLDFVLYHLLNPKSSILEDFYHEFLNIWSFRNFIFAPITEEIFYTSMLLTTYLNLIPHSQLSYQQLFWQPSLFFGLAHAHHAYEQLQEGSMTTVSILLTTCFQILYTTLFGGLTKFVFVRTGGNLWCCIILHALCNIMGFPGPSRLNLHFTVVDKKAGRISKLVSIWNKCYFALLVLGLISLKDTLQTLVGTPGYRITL
eIF4H inh: human eIF4H binding inhibitors, primary screen, translation initiation inhibitor project, biochemical, uHTS, fluorescence polarization; 0.94% of 290,000 active; inhibition, % at 35 µM; AID 2012, 2009; eIF4H fluorescence polarization binding assay; Eukaryotic translation initiation factor 4H (Homo sapiens), Q15056;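 active means 50% or more with normal probe brightness, or confirmed in later tests; inconclusive means above 50% with abnormal brightness, or retests that disagree; inactive means below 50% or failed in later tests; about a fifth of its hits are not listed in these tables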;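 further: calls also rest on retests at 20 µM and on dose response follow-up; 0% = protein and probe with vehicle and 100% = probe without protein; strong numbers were not always called active; many hits fall short of the cut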
Env fusion inh: inhibitors of HIV-1 Env-driven cell-cell fusion, primary screen, HeLa-JRFL effector, CEM21 target cells, luciferase; inhibition, % at 12.3 µM; 1.1% of 360,000 active; AID 651610, 2012;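 active means mean replicate inhibition score of at least 50 and every replicate individually at or above 50; inconclusive means only one of the two criteria met; inactive means mean below 50 and not all replicates reaching 50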;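 further: 0% = plate neutral controls and 100% = maraviroc near 300 nM; one replicate is shown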
PABP polyA inh: PABP poly(A) RNA binding inhibitors, primary screen, biochemical, fluorescence polarization, uHTS; 1% of 290,000 active; inhibition, % at 35 µM; Polyadenylate-binding protein 1 (Homo sapiens), P11940;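 active means 50% or more with normal probe brightness, or confirmed in later tests; inconclusive means above 50% with abnormal brightness, or retests that disagree; inactive means below 50% or failed in later tests; about a fifth of its hits are not listed in these tables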;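 further: calls also rest on retests at 20 µM and on dose response follow-up; controls were probe without protein and protein plus probe with vehicle; some compounds called inactive have numbers as strong as hits; many hits fall short of the cut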
Target sequence (P11940 whole entry, looked up): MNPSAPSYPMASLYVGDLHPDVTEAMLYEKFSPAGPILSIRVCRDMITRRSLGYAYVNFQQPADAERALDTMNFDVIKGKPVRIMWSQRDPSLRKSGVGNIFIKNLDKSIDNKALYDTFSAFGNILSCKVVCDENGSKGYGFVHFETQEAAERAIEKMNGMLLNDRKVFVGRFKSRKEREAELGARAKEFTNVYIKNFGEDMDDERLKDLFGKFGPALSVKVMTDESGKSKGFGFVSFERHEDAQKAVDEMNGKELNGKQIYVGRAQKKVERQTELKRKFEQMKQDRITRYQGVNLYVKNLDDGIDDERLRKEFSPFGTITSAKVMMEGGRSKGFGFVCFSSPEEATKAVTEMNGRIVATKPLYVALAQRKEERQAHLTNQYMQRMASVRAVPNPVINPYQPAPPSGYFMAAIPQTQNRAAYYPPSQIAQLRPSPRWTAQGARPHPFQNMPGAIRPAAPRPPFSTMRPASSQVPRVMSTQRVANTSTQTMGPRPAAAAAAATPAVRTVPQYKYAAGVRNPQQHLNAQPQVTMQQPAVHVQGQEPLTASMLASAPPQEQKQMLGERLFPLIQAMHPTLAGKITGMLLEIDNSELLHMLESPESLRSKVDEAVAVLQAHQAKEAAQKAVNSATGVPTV
MT1-MMP act inh RFP: further read-out of MT1-MMP act inh, marked with its call; RFP signal change, %; measured here: RFP expression control read;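 0 = vehicle wells; hits needed this value within 50% of zero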
* marks the source's active call; other numbers are inactive results; i = inactive; ? = inconclusive; · = not tested or not shown; + = active, no number. These rows are one share of the data. The share of hits here may be higher or lower than overall.

item	SMILES	eIF4H inh	MT1-MMP act inh RFP	Rce1 inh	PABP polyA inh	CSC inhib	MT1-MMP act inh	Yeast UUG start	Env fusion inh
1	CC(C)(C)c1ccc(COC(=O)CN2C(=O)NC3(CCCC3)C2=O)cc1	·	6	i	·	·	2	4	-5
2	Cc1cccc(C(=O)Nc2cccc(OCC(=O)O)c2)c1	-9	2	i	4	1	0	·	-4
3	O=C(Nc1ccc2c(c1)CCC2)c1ccccc1Br	-9	1	+	4	2	5	·	-71
4	CN(C)CCN1C(=O)NC(C)(c2ccc([N+](=O)[O-])cc2)C1=O (configuration not stated)	12	5	i	5	-9	0	-13	0
5	CCC1CCCCN1Cc1nc(Cc2ccccc2Cl)no1 (configuration not stated)	4	2	i	-8	·	-1	-10	6
6	O=C(NCc1ccc(F)cc1)C1CCN(S(=O)(=O)N2CCCCC2)CC1	2	3	i	-3	1	12	-3	·
7	CCOC(=O)N1CCC(n2c(SCC(=O)Nc3nccs3)nc3ccsc3c2=O)CC1	-5	-2	i	1	·	3	-18	?
8	CC(C)(C)C(=O)/C=c1\[nH]c(=O)/c(=C\c2ccc(F)cc2)s1	6	-3	i	-7	42	1	·	·
9	Cn1c(N)c(C(=O)COC(=O)c2ccc(Cl)nc2)c(=O)n(C)c1=O	-10	-3	i	-5	-16	-1	·	-12
10	COc1cccc(N2C(=O)CC(Nc3ccc(N4CCOCC4)cc3)C2=O)c1 (configuration not stated)	0	12	i	4	-37	12	-19	·
11	COc1ccc(OC)c(C2=NOC(C(=O)NCc3cccnc3)C2)c1 (configuration not stated)	4	1	i	-7	-13	-5	-10	-25
12	O=C(CCn1cnc2ccccc2c1=O)Nc1cccc(Cl)c1	-1	3	i	-4	14	3	-4	-46
13	O=C(Cc1ccccc1F)Nc1ccc(SC(F)F)cc1	-3	-2	i	2	25	1	·	-101
14	CCOC(=O)c1c(NC(=O)CSc2nnc(-c3c[nH]c4ccccc34)n2CCOC)sc2c1CCCCC2	-3	-11	i	1	15	-1	0	-2
15	Cc1ccc2c(c1)sc1nc(=O)n(-c3ccc(Cl)cc3)c(=O)n12	-10	3	i	-3	27	3	-6	-106
16	CCOC(=O)c1cnc(-n2nc(C)cc2C)nc1Oc1ccc(C#N)cc1	3	-2	i	-18	-11	-2	-29	16
17	Cc1cc(Nc2ccc(Cl)cc2)nc(N)n1	6	1	i	2	12	3	-15	-151
18	COc1ccc(C(C)=O)cc1CSc1nc2ccccc2c(=O)n1-c1ccccc1C	3	-23	i	-15	24	-22	-8	19
19	COc1ccccc1/C=C/C(=O)NCCC1=CCCCC1	-12	1	i	-5	-1	9	·	-30
20	O=C(O)CCCNS(=O)(=O)c1ccc2c(c1)OCCCO2	-4	2	i	4	-3	1	-9	4
21	CCc1ccc(NC(=O)c2cc(S(=O)(=O)N3CCCC3)ccc2F)cc1	·	-14	·	·	·	-2	-10	28
22	CCC(C(=O)NCCCN1CC(C)CC(C)C1)n1ncn2c(cc3occc32)c1=O (configuration not stated)	-11	3	i	2	17	-1	-20	3
23	COc1cc2[nH]c(=O)n(CCC(=O)N3CCN(Cc4ccccc4)CC3)c(=O)c2cc1OC	16	2	i	31	-6	3	-14	35
24	CCCc1ccc(C(=O)NNc2ccccc2F)cc1	1	3	i	-4	46	3	·	-45
25	O=C(C1CCCN(CCCc2ccccc2)C1)N1CCCCC1 (configuration not stated)	6	3	i	2	-4	3	-16	·
26	CCOC(=O)CSc1nc2cc(C(=O)N3CCCC3)ccc2c(=O)n1Cc1ccccc1	0	-1	i	3	-3	-3	-3	-9
27	Cc1ccc(CN2C(=O)CCC2C(=O)NC(C)C)cc1 (configuration not stated)	2	5	i	-5	17	0	-23	·
28	COC(=O)c1cc(-c2ccc(OC)c(OC)c2)c2c(=O)[nH]c(=O)n(C)c2n1	-5	1	i	5	0	5	-7	26
29	Cc1ccc(C(=O)Nc2cccc(NC(=O)c3cccnc3)c2)cc1	-4	-4	i	-7	-3	0	-17	5
30	CCNC(=O)C1(C)CCCN(Cc2cc(-c3ccccc3)n(C)n2)C1 (configuration not stated)	·	3	·	·	·	2	-15	25
31	C/C(=N/NC(=O)CSc1nc2ccccc2n1C)c1ccc(O)cc1	-9	-2	i	-8	·	-4	·	7
32	Cc1ccccc1C(=O)Oc1ccc(Sc2ccc(O)cc2)cc1	1	·	i	6	25	·	1	·
33	Cc1cc(O)c(C2(O)C(=O)Nc3cc(Br)ccc32)cc1C (configuration not stated)	1	-5	i	-8	5	-1	-11	14
34	CC(=O)Nc1ccc(/C=N/OCC(=O)Nc2ccc(C)cc2)cc1	2	1	i	2	-4	0	·	-31
35	CCOCCCN1CC(C(=O)NCCc2ccc(C)cc2)CC1=O (configuration not stated)	-7	0	i	1	-10	2	-2	·
36	CCOC(=O)Cc1csc(NS(=O)(=O)c2cccc([N+](=O)[O-])c2)n1	-2	4	i	5	-2	-4	-12	-3
37	Cc1ccccc1N/N=C/c1ccc(C#N)cc1	0	9	i	30	41	3	·	-42
38	COc1cccc(NC(=O)CNC(=O)Cn2cnc3sc4c(c3c2=O)CCCC4)c1	-7	0	i	-1	-3	4	-20	4
39	Cc1ccc(NC(=O)NCCCN2CCCC2=O)cc1C	1	1	i	-1	6	-3	-25	-17
40	Cc1ccc(CNC(=O)CCC2CCCN(Cc3cccc4cccnc34)C2)o1 (configuration not stated)	30	0	i	14	4	-5	-16	7
41	CCOC(=O)CN(C(=O)CNC(=O)c1ccco1)C(C(=O)NC1CCCC1)c1ccccc1OCC (configuration not stated)	-16	0	i	-12	2	-2	8	i
42	COc1ccccc1NC(=S)NC(=O)Cc1ccc(Cl)cc1	-9	-5	i	6	-13	-8	-19	-19
43	COc1ccc(/C=N/NC(=O)c2cccc(NC(C)=O)c2)c(OC)c1	-1	6	i	2	-9	0	·	0
44	Cc1cc(C(=O)CSc2nc3ccc(Cl)cc3[nH]2)c(C)n1Cc1ccco1	·	-11	i	·	7	0	-19	6
45	CCn1c(Cc2cccs2)nnc1SCC(=O)NC1CC1	10	1	i	10	-3	-3	-18	7
46	Cc1ccc(OC(=O)N2CCOCC2)cc1	-3	4	i	-7	-6	2	-20	-59
47	COc1ccc(NC(=O)C2CCCN2S(=O)(=O)c2cccc3cccnc23)cc1OC (configuration not stated)	2	-1	i	-5	4	-2	-16	2
48	CCOc1ccccc1C1CC(c2ccc(Br)cc2)Nc2nc(N)nn21 (configuration not stated)	-5	-1	i	-4	-6	1	-19	-1
49	O=C(COC(=O)C1CCC(=O)N1)Nc1ccc(Cl)cc1Cl (configuration not stated)	2	3	i	-10	-9	4	·	·
50	C=CCNC(=S)Nc1ccc2nc(C)oc2c1	-2	6	i	-9	3	1	-5	1

(cont.)
item	SMILES	eIF4H inh	MT1-MMP act inh RFP	Rce1 inh	PABP polyA inh	CSC inhib	MT1-MMP act inh	Yeast UUG start	Env fusion inh
51	Cc1ccc(NC(=O)c2ccccn2)c(Br)c1	-8	5	i	-7	-2	1	·	-96
52	CC1CCCN(CC(=O)Nc2ccc(S(=O)(=O)N3C(C)CCCC3C)cc2)C1 (configuration not stated)	·	3	·	·	·	1	-10	-10
53	Cc1ccc(-c2cc(C(=O)N(C)Cc3cnn(C)c3C)c3cc(Br)ccc3n2)cc1	1	-9	i	9	19	-17	·	-21
54	CCn1cc(C(=O)Nc2ccccc2C(=O)OC)cn1	·	-1	i	·	·	-1	-12	-1
55	COc1ccc(CN(C(=O)c2ccco2)c2ccc(Br)cc2)cc1OC	-8	-3	i	-12	·	5	-8	-11
56	CCNC1=C(Cl)C(=O)c2ccccc2C1=O	-13	7	i	10	-7	17	-21	·
57	O=C(Nc1sc2c(c1C(=O)O)CCCC2)c1ccc(Cl)cc1	3	-6	i	-6	44	-4	-6	-276
58	CCC1(CC(C)C)SC(N)=NC1=O (configuration not stated)	·	8	·	·	·	2	-34	12
59	Cn1cccc1C(=O)NC(=O)COC(=O)c1cc(S(=O)(=O)N2CCCCC2)ccc1Cl	12	5	i	-5	-6	0	-3	-6
60	COc1ccc(S(=O)(=O)N2CCCOC2CNC(=O)C(=O)NCCCN2CCOCC2)cc1C (configuration not stated)	-8	1	i	2	-7	3	-24	4

Complete entries, looked up by structure. Screens in order: eIF4H inh, MT1-MMP act inh RFP, Rce1 inh, PABP polyA inh, CSC inhib, MT1-MMP act inh, Yeast UUG start, Env fusion inh
Profile of `CCOC(=O)CSc1nc2cc(C(=O)N3CCCC3)ccc2c(=O)n1Cc1ccccc1` : 0, -1, i, 3, -3, -3, -3, -9
Profile of `COc1ccc(CN(C(=O)c2ccco2)c2ccc(Br)cc2)cc1OC` : -8, -3, i, -12, ·, 5, -8, -11

More results follow:
item	SMILES	eIF4H inh	MT1-MMP act inh RFP	Rce1 inh	PABP polyA inh	CSC inhib	MT1-MMP act inh	Yeast UUG start	Env fusion inh
61	COc1cccc(-c2cc3onc(-c4ccccc4)c3c(=O)n2C)c1	·	-21	·	·	15	-7	-9	-109
62	CCOc1ccc(NC(=S)Nc2ccc(F)cc2)cc1	1	0	i	1	-10	4	-10	-10
63	Cc1ccc(S(=O)(=O)N/N=C/c2cc(Br)c(C)o2)cc1	38	-3	i	26	-19	-6	6	·
64	CC(C)=CC(=O)N1CCC(Oc2cccc(C(=O)NCc3ccccn3)c2)CC1	·	0	·	·	·	2	-6	-5
65	Cc1ccc(S(=O)(=O)N2c3ccccc3NC(=O)CC2C)cc1 (configuration not stated)	-5	2	i	0	-12	4	-16	-17
66	CN(Cc1ccccc1)C(=O)CN1C(=O)c2ccccc2S1(=O)=O	-7	1	i	-12	·	0	·	-24
67	COc1cc2nc(N(CCCN(C)C)C(=O)c3ccc(S(=O)(=O)N(C)C4CCCCC4)cc3)sc2cc1OC	·	-1	i	·	0	1	1	18
68	O=C(O)CCCC(=O)Nc1c(F)c(F)c(F)c(F)c1F	-11	7	·	10	·	2	-8	·
69	COC(=O)c1cccc(NC(=O)CSc2nnc(COc3ccc(C#N)cc3)n2-c2ccccc2)c1	14	-2	i	-2	-18	2	-12	11
70	O=C1c2ccccc2C(=O)N1CC#CCN1CCN(C(c2ccccc2)c2ccccc2)CC1	-10	-6	i	5	96*	-6	3	·
71	O=C(NC(Nc1ncc(S(=O)(=O)c2ccc([N+](=O)[O-])cc2)s1)(C(F)(F)F)C(F)(F)F)c1ccc(Cl)cc1	-2	-37	i	6	89*	-29	-6	144*
72	Cc1ccc(C(=O)NCc2nc3ccccc3[nH]2)o1	-3	4	i	7	-8	1	-21	7
73	Cc1ccc(C)c(CN2CCC(n3nccc3NC(=O)C3CCCC3)CC2)c1	-10	-2	i	-8	-10	-1	4	4
74	O=S(=O)(c1ccc(NC(=S)NCc2cccnc2)cc1)N1CCCCC1	2	-5	i	-5	139*	6	-21	25
75	O=C(NC(=S)NCCN1CCOCC1)c1ccc(F)cc1	6	2	i	-10	-16	2	·	-6
76	CC(Sc1ccc2c(c1)OCCO2)C(=O)Nc1ccc(N2CCOCC2)cc1 (configuration not stated)	-1	2	i	2	-8	2	·	12
77	ON(CCc1ccccn1)Cc1ccccc1	·	3	·	·	·	4	-1	6
78	NC(=O)C1CCCN(C(=O)c2[nH]c(C(F)(F)F)nc2-c2ccccc2)C1 (configuration not stated)	·	0	·	·	·	1	2	-13
79	CN(C)c1ccc(/C=C2\SC(=O)N(CCc3nnc(N)s3)C2=O)cc1	?	-4	i	?	-4	-108	·	23

Screening data (PubChem)
